# Compound activity: PubChem BioAssay, National Center for Advancing Translational Sciences (NCATS)
# D2 potentiator: Beta-Arrestin HTS for Positive Allosteric Modulators of the Human D2 Dopamine Receptor: Potentiators; DiscoveRx D2 beta-arrestin cells, luminescence, 90 min; 100% = 57 uM dopamine signal; actives 0.23% (n = 360,000); potentiation, % (test concentration not listed); active = potentiation of 50% or more; inconclusive = 30% to 50%; inactive = 30% or less;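 further: compound concentration not given in the record; tested on top of an EC20 dose of dopamine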
#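 PathHunter beta-arrestin assay in DiscoveRx D2 cells. Compounds were added with an EC20 of dopamine (50 nM final) for 90 min at 37 deg C. Luminescence was read 1 h after detection reagent, with 57 uM dopamine as the EC100 control.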
# TRPML1 inh: qHTS for Inhibitors of the Human Mucolipin Transient Receptor Potential 1 (TRPML1); TRPML1-inducible cells, Ca2+ dye fluorescence, FDSS; hits give low values; inhibition of EC80 agonist-evoked calcium signal; actives 0.02% (n = 390,000); Mucolipin-1 (Homo sapiens), Q9GZU1; activity change, negative = inhibition, % (concentration not given with the values); in the data active means activity change below about -50%; inconclusive means about -30% to -50%; inactive means above about -30%;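 further: stimulus is agonist 54-4 at its EC80 concentration; on the % scale 0 is the no-effect control and ±100 the full control effect; compound concentration not given in the record; the text of the record puts the active cut at -80%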
#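 Calcium fluorescence in TRPML1-DL cells induced overnight with Tet: a 110 s read after compound pin addition, then a 110 s antagonist read after challenge with 54-4 at 4 uM final (EC80).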
# PINK1 modulator: A Quantitative High throughput Screen to Identify Chemical Modulators of PINK1 Expression. PINK1 immunofluorescence, high-content cytometry, 24 h. Potency, µM (titrated, usually from 76.6 µM), without a hit: at the top dose activation (PINK1 increase), most hits filed as activators. actives 0.2% (n = 410,000); active = well fitted activation curve with a large enough effect; inconclusive = small, poorly fitted or top-dose-only effect; inactive = flat fitted curve, though single readings scatter; cell line not stated here;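 further: potency means the concentration at half of the fitted maximal effect; % of control where 0% means no effect; nearly all actives have a fitted effect of over 65% in size; a mitochondrial uncoupler was the plate control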
#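 Stable cell line, 250 cells/well, 12 h attachment; compounds pinned at 5 concentrations, 24 h; CCCP control. Fixed with nuclear dye, primary antibodies 12 h at 10 degrees C, secondary plus cell stain; laser-scanning cytometer read.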
# TRPML1 ag: qHTS for Agonists of the Human Mucolipin Transient Receptor Potential 1 (TRPML1); TRPML1-expressing cells, Ca2+ dye fluorescence, FDSS; host cell line not named in the record; reference of the full effect not given here; Mucolipin-1 (Homo sapiens), Q9GZU1; activation, % (test concentration not listed); AID 624414, 2012; actives 0.12% (n = 410,000); in the data active = activation above about 50%; inconclusive = about 30% to 50%; inactive = below about 30%; further: 0% is about no effect; the text of the record puts the active cut at 80%
#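 In this qHTS format, compounds were pin-transferred onto Ca8-dye-loaded TRPML1-DL cells induced with Tet overnight, and intracellular Ca2+ fluorescence was recorded kinetically for 110 s after a 10 s baseline. A subsequent 4uM final 54-4 (EC80) addition followed by a second 110 s read served as the antagonist phase.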
# Six1-Eya2 blk: qHTS Assay for Inhibitors of the Six1/Eya2 Interaction | Homeobox protein SIX1 (Homo sapiens) + Protein phosphatase EYA2 (Homo sapiens), … | AlphaScreen GST-Six1/His-Eya2 binding, biochemical; hits give low values; control for the full effect not named in the record | activity change, % (no concentration beside the values) | actives 0.56% (n = 360,000); in the data active = activity change below about -65%; inconclusive = about -30% to -65%; inactive = above about -30%; further: on the % scale 0 is the no-effect control and ±100 the full control effect; compound concentration not given in the record
# Target sequence (O00167 whole entry, looked up): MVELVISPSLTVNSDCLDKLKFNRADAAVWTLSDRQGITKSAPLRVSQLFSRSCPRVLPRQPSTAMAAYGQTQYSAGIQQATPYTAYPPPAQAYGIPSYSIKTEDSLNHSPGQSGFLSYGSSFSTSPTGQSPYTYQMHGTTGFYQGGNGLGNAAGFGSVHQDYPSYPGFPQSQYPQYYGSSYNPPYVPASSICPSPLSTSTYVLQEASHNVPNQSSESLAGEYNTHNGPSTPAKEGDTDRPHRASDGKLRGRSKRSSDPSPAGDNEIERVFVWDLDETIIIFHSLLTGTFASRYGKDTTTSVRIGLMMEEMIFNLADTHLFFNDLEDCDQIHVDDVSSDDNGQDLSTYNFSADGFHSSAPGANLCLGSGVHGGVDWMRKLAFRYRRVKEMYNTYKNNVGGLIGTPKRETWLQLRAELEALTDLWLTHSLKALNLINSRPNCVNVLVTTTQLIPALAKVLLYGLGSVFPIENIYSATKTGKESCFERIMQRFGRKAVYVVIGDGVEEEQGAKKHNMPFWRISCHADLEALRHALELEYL
# Target sequence (Q15475 whole entry, looked up): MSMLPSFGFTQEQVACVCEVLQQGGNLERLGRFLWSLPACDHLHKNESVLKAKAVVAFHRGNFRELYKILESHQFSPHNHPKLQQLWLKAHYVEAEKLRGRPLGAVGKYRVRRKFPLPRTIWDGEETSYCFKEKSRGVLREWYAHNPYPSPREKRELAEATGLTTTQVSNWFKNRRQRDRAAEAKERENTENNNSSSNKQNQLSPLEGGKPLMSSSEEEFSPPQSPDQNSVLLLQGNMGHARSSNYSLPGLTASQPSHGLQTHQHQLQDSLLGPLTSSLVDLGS
#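 AlphaScreen luminescence read after one hour at 37 °C in darkness. Pin-transferred compounds met GST-Six1 and His-Eya2 protein (5X stock 250 nM/500 nM) plus glutathione donor and Ni-chelate acceptor beads (5X, 50 ug/mL).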
# D2 agonist: Beta-Arrestin HTS for Positive Allosteric Modulators of the Human D2 Dopamine Receptor: Agonists. D(2) dopamine receptor (Homo sapiens), P14416. actives 0.084% (n = 360,000). activation, % (test concentration not listed). DiscoveRx PathHunter D2 beta-arrestin, luminescence, 90 min; 100% = 57 uM dopamine signal; in the data active = activation above about 40%; inconclusive = about 15% to 40%; inactive = below about 15%; further: compound concentration not given in the record; the text of the record calls up to 30% inactive
#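 Agonist mode: compounds alone added to overnight-plated D2 PathHunter cells for 90 min at 37 C, with 57 uM final dopamine (EC100) defining full response. Beta-arrestin recruitment detected by chemiluminescent reagent, read after 1 h at ambient temperature.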
# * marks the source's active call; other numbers are inactive results; ? = inconclusive; · = no result given; [ ] = another dose, or the depositor's remark.
SMILES	Six1-Eya2 blk	TRPML1 inh	D2 potentiator	PINK1 modulator	D2 agonist	TRPML1 ag
CCCN=C(C)c1c(-c2ccccc2)[nH]n(-c2nc3ccccc3s2)c1=O	-1	3	11	5.5%	1.0	1.7
COc1cccc2cc(C(C)N(CCCN3CCOCC3)C(=S)Nc3ccc(C)c(C)c3)oc12 (stereo unspecified)	-22	1	-26	1.0%	-4.7	-0.4
Cc1cc(C(F)(F)F)n2nc(-c3cccs3)cc2n1	11	-2	-5	2.1%	-5.0	1.8
Cc1ccc(Cn2c(SCC(C)C)nc3c2c(=O)n(C)c(=O)n3C)cc1	-1	3	-11	-1.1%	-5.1	16
O=C(N/C(=C\c1ccco1)C(=O)N1CCCC1)c1cccs1	0	8	-12	9.1%[38.3 µM]	-1.9	1.1
Cc1ccc(C(=O)NCC(=O)OCC(=O)Nc2ccc(Cl)cc2C(F)(F)F)cc1C	12	-10	-12	1.9%	-4.3	1.1
CC1(c2nnc(-c3ccncc3)o2)CC(c2ccc([N+](=O)[O-])cc2)=NO1 (stereo unspecified)	2	6	-2	-0.8%	-1.8	1.1
O=C(O)c1ccc(N2CC3CC(C2)c2cccc(=O)n2C3)c(NC(=S)Nc2ccc(Br)cc2)c1 (stereo unspecified)	-4	-4	-5	17%	3.7	-0.1
O=C(NCCN1CCOCC1)c1ccc(Cl)c(S(=O)(=O)N2CCCC2)c1	7	36	6	0.4%	-4.1	0.3
Cc1nn(-c2nc(-c3ccc(F)cc3)cc(C(F)(F)F)n2)c(C)c1Br	·	13	·	0.7%	·	0.5
COc1ccc(C)cc1NC(=O)NNC(=O)c1ccoc1C	-22	-5	-7	2.1%	0.5	0.2
C(=NN=C1c2ccccc2-c2ccccc21)c1ccc2c(c1)OCO2	?	1	-14	11%	-3.0	1.0
COc1cccc(Cn2cc(C(=O)c3ccc(Cl)cc3)c(=O)c3ccccc32)c1	·	34	·	0.0%	·	1.2
O=C(CSc1nc2ccccc2s1)Nc1ccc2c(c1)OCO2	10	-3	-8	-1.2%	2.2	2.2
COc1cccc(CNC(=O)c2ccc(CS(=O)Cc3ccccc3Cl)o2)c1 (stereo unspecified)	1	25	-7	-1.0%	2.0	-0.7
C=CCN(CC=C)S(=O)(=O)c1ncn[nH]1	1	-4	18	8.0%	-1.8	-0.9
COCC(=O)N1CCC(Oc2ccc(C(=O)N3C[C@@H](C)O[C@@H](C)C3)cc2)CC1	4	11	19	0.3%	1.2	0.4
O=C(NCc1ccco1)c1cnn2c1NC(c1ccc(Br)cc1)CC2C(F)(F)F (stereo unspecified)	-27	1	-1	-1.6%	-1.8	-0.9
CN(Cc1ccc(Cl)cc1Cl)C(=O)CN1C(=O)NC2(CCCC2)C1=O	-1	-2	-12	-1.0%	-2.8	-0.4
Cc1ccccc1NC(=O)Cc1nc(COC(=O)/C=C/c2ccccc2)cs1	-3	-1	-2	0.8%	-2.0	-0.2
O=C(Nc1ccc2c(c1)[C@@H]1C[C@@H](CC(=O)N3CCOCC3)O[C@@H](CO)[C@@H]1O2)NC1CCCC1	2	8	0	-1.1%	0.3	-0.3
CCOc1ccccc1NC(=O)c1c(NC(=O)c2ccncc2)sc2c1CCC(C(C)(C)C)C2 (stereo unspecified)	·	28	·	2.4%	·	-0.7
Cc1ccc(NS(=O)(=O)c2cccs2)nc1	0	15	-7	0.0%	0.7	-0.8
CC1CCN(S(=O)(=O)c2ccc3c(c2)c(=O)c(C(=O)N2CCCCC2)cn3C)CC1	-2	10	8	5.1%[38.3 µM]	0.4	0.0
Cc1cc(C)cc(N(CCC(=O)O)S(=O)(=O)c2ccc3ccccc3c2)c1	0	-11	-4	0.9%	-1.7	0.6

# In the list so far, these contain an aryl thioether with sulfur outside any ring:
SMILES	Six1-Eya2 blk	TRPML1 inh	D2 potentiator	PINK1 modulator	D2 agonist	TRPML1 ag
Cc1ccc(Cn2c(SCC(C)C)nc3c2c(=O)n(C)c(=O)n3C)cc1	-1	3	-11	-1.1%	-5.1	16
O=C(CSc1nc2ccccc2s1)Nc1ccc2c(c1)OCO2	10	-3	-8	-1.2%	2.2	2.2

# Additional results
SMILES	Six1-Eya2 blk	TRPML1 inh	D2 potentiator	PINK1 modulator	D2 agonist	TRPML1 ag
O=C(O)c1[nH]c2ccccc2c1C=NCc1ccccc1Cl	-6	-8	-3	2.1%	-3.7	0.0
COc1ccc(S(=O)(=O)O)cc1P(=O)(c1ccccc1)c1ccccc1	4	-10	2	4.5%	3.4	0.4
CN(C)c1ccc(-n2cccc2/C=C2/SC(=Nc3ccc(F)cc3)NC2=O)cc1	2	11	0	·	-1.6	0.2
CC(=O)N[C@@H](Cc1c[nH]c2ccccc12)C(=O)NC1CCCc2ccccc21 (stereo partly specified)	-3	9	-2	1.5%	5.4	0.1
O=C(CSC(=S)N1CCOCC1)Nc1nc(-c2ccccc2)c(-c2ccccc2)o1	-5	-15	-13	1.1%	-3.7	1.5
Cc1ccc(NC(=O)CCC(=O)OCC(=O)c2ccc(-c3ccccc3)cc2)cc1	2	7	-13	22%[38.3 µM]	1.8	0.0
COC(=O)c1sc(S(=O)(=O)NCC(=O)O)c(C(=O)OC)c1C	-2	53	-6	1.5%	-8.5	-0.4
Cn1c2ccccc2c(=O)c2ccc(NCc3ccc4c(c3)OCO4)cc21	-19	23	·	0.3%	6.4	-0.9
O=C(CN1C(=O)c2cccc([N+](=O)[O-])c2C1=O)N1CCc2ccccc2C1	-2	6	-5	3.0%	-1.0	-1.0
CC1CN(C(=O)COC(=O)c2cnc(Cl)c(Cl)c2)CC(C)O1 (stereo unspecified)	-9	1	-9	2.3%	0.9	-0.6
Cc1ccc(CNC(=O)CCCCCn2c(=O)c3sccc3n(CC(=O)N3CCCCC3C)c2=O)cc1 (stereo unspecified)	·	14	·	1.0%	·	2.7
O=C(COC(=O)c1ccc([N+](=O)[O-])s1)Nc1cccc(S(=O)(=O)NC2=NCCCCC2)c1	-2	21	2	0.9%	8.1	-0.1
CC(C)CC(c1nnnn1C(C)C)N1CCN(c2cccc(Cl)c2)CC1 (stereo unspecified)	-10	-18	6	-0.4%	0.7	84*
COCc1c(C(=O)N/N=C/c2cccc3ccccc23)nnn1-c1nonc1N	0	-15	3	18%	-4.7	-0.4
COc1ccc(N(Cc2ccccc2)C(=O)CSc2nnc(Cn3nnc4ccccc43)o2)cc1	-6	16	13	-0.2%	0.6	4.6
COc1ccc(/C=N/Nc2ccc([N+](=O)[O-])cc2)cc1O	10	-4	-7	-0.9%	-3.0	21
CCCc1cc(C(=O)Nc2ccc(C(=O)OC)cc2)cs1	7	5	-21	8.0%	-0.2	2.9
O=c1[nH]c(C2CCN(S(=O)(=O)c3ccccc3C(F)(F)F)CC2)nc2c1nnn2Cc1ccccc1	-11	-10	-4	-0.8%	0.9	2.7
FC(F)Oc1cccc(NC(=S)N2CCN(c3ccccn3)CC2)c1	-6	13	-3	-1.0%	-1.8	4.7
Cn1c(N/N=C/c2ccccc2)nc2sc3c(c2c1=O)CCC3	-71*	-14	8	2.1%	-1.7	-0.9
COc1ccc(OCC(=O)NCCCNC(=O)COc2ccc(OC)cc2)cc1	-1	1	-1	-1.1%	-1.0	-0.6
COc1cc(OC)c(OC)cc1CN1CCc2nc(Nc3ccc4c(c3)OCCO4)ncc2C1	·	22	·	0.9%	·	0.0
Cc1c(O)ccc2c(CC(=O)N[C@@H](Cc3ccccc3)C(=O)O)cc(=O)oc12	11	-7	-10	2.9%	0.1	1.0
Cc1cc(S(=O)(=O)NC(C)C)ccc1OCC(=O)NCc1ccccc1	-7	16	4	0.2%	-3.7	-0.9
Cc1nc2ccc(S(=O)(=O)NCC(=O)N3CCC(N4CCCCC4)CC3)cc2s1	-3	1	10	-0.7%	-0.1	3.3
CC(=Nc1cccc(C)c1)c1sc2ccccc2c1O	18	9	-4	·	0.0	15
Cc1ccc(S(=O)(=O)C2C(=O)NC3(C)CC2c2ccccc2O3)cc1 (stereo unspecified)	6	1	0	2.8%	0.6	-0.6
Cc1nn(-c2ccc(C(=O)Nc3nnc(C4CC4)s3)cc2)c(C)c1Cl	5	-15	0	7.6%	1.2	-0.3
CCc1ccc(N(C(=O)CCC(=O)Nc2cc(C)on2)C(C(=O)NC(C)(C)C)c2ccc(OC)cc2)cc1 (stereo unspecified)	9	-9	-5	5.7%	-3.9	2.3
CN1CCN(C(=O)Cn2ncc3c4ccccc4n(Cc4ccc(F)cc4)c3c2=O)CC1	·	-4	·	0.1%	·	0.3
C/C=C/c1ccc(OCCCCN2CCN(CC)CC2)c(OC)c1	-10	14	-20	-1.7%	-1.6	0.3
O=C(CCC1CCCN(C(=O)COc2ccccc2)C1)N1CCN(c2ccccn2)CC1 (stereo unspecified)	2	10	2	-1.0%	-0.1	-0.3
O=C(NCCC1CCCCN1S(=O)(=O)c1ccc(F)cc1)C(=O)NCc1ccncc1 (stereo unspecified)	3	19	-8	-1.1%	4.0	1.2
COc1ccc(N2CCN(C(=O)Cc3coc4cc(C)ccc34)CC2)cc1	-14	-1	-4	1.4%	2.2	0.4
Cc1ccc(-n2c(=O)c3c(c4cc(C)ccc4n3C)n(CC(=O)Nc3c(C)cccc3C)c2=O)cc1	·	-13	·	0.2%	·	-0.3
CCOC(=O)C(CC)/C(C)=N\NC(=O)CCC(=O)Nc1ccc(Cl)cc1Cl (stereo unspecified)	2	-1	0	1.7%	-0.9	1.4
CC(=O)Nc1cc(-c2ccccc2)nn1Cc1ccc(Cl)cc1	2	-10	-7	-1.5%[38.3 µM]	-0.5	0.0
CCOc1ccc2nc(SCC)[nH]c2c1	8	-12	5	-1.6%	-1.6	3.3
CCOc1cc(CO)cc(Br)c1OCC(=O)O	-9	-5	-15	0.1%	1.0	-1.5
CC(=O)c1ccc(NC(=O)Cn2nc(C(F)(F)F)c3c2CCC3)cc1	·	-5	·	2.9%	·	-0.4
COCCSc1ccccc1C(=O)N1CCc2ccccc21	13	-6	-2	-0.6%	-6.9	-0.6
c1ccc(-c2ccc3cnccc3n2)cc1	-2	·	-6	-1.2%	-1.7	-0.7
O=S(=O)(NC1c2cccc3cccc(c23)C1Sc1ncccn1)c1ccc(Cl)cc1 (stereo unspecified)	3	-3	4	-1.4%	0.6	1.6
